PKA-R1A act – activators of PKA-R1A complex | PKA-R1A dissociation, Cy5-IP20 fluorescence polarization; scaled: DMSO 0%, 113 µM cGMP 100% | activation, % at 11.4 µM | actives 0.083% (n = 340,000) | AID 504707;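 active = percent activation above the mean of all tested compounds plus 3 SD, cut at about 19% in these data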;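 also: higher means more PKAc released from R1A so a rise in polarization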
HTR5A inv ag – HTR5A inverse agonism, opioid heterodimer counter-screen; P47898; HTR5A cell line, luminescence; inhibition, % at 9.3 µM; actives 0.083% (n = 340,000); in the data active = inhibition mostly above about 23%, no sharp cut-off; inactive = mostly below about 18%;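 also: 0% = cells with DMSO and 100% = no-cell wells with DMSO; some compounds called inactive have numbers as strong as hits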
Target sequence (P47898 whole entry, looked up): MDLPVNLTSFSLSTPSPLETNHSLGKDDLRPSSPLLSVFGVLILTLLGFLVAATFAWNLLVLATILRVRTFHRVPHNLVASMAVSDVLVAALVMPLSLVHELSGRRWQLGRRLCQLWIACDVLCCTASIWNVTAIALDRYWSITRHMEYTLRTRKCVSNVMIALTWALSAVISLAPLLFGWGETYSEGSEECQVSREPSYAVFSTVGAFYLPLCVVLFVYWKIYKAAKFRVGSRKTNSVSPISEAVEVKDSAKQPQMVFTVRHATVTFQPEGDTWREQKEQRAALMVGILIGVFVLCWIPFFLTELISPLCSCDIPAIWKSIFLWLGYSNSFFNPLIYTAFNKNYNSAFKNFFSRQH
Ecoli viability – counter-screen for AddAB inhibitors: E. coli growth inhibition; E. coli V3065 growth, OD600 absorbance, 18 h; inhibition, % at 11.9 µM; actives 0.27% (n = 330,000);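 active = inhibition above the campaign's mean inhibition across all tested compounds plus 3 SD, cut at about 9.9% in these data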;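 also: uninfected addAB+ strain grown without phage in ampicillin broth; 0% = DMSO wells and 100% = ciprofloxacin 0.95 µg/ml wells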
phage Ecoli inh – E. coli growth loss with phage present. growth absorbance. inhibition, % at 11.9 µM. actives 0.26% (n = 360,000); in the data active = inhibition above about 11%
Tat transport – E. coli Tat transport inhibition | E. coli MC4100 TorA-mCherry Tat export, fluorescence | inhibition, % at 10 µM | actives 0.036% (n = 340,000) | AID 488895;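 active = mean replicate inhibition at least 50% and at least half of replicates individually reaching 50%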;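 also: exported cargo escapes ClpAP degradation while cytoplasmic cargo is degraded and loses fluorescence; 0% = median of neutral control wells and 100% = median of NaSCN control wells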
AddAB inh – less growth of phage-infected E. coli with AddAB; E. coli expressing H. pylori AddAB, absorbance growth; AID 435030; inhibition, % at 11.9 µM; actives 0.29% (n = 330,000); in the data active = inhibition above about 12%;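 also: 0% = vehicle wells of infected cells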
PKA-R2B act – activators of human PKA-R2B complex. P22694+P31323. PKA-R2B holoenzyme dissociation, Cy5-IP20 fluorescence polarization; R2B truncated from residue 108, S112A mutant; 0% DMSO only, 100% 113 µM cGMP. activation, % at 11.4 µM. actives 0.079% (n = 340,000);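 active = activation above a cutoff set at the mean over all compounds plus 3 SD, cut at about 18% in these data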;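 also: higher means more holoenzyme dissociation and a rise in polarization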
Target sequence (P31323 whole entry, looked up, other chains not shown, the tested form may be a part): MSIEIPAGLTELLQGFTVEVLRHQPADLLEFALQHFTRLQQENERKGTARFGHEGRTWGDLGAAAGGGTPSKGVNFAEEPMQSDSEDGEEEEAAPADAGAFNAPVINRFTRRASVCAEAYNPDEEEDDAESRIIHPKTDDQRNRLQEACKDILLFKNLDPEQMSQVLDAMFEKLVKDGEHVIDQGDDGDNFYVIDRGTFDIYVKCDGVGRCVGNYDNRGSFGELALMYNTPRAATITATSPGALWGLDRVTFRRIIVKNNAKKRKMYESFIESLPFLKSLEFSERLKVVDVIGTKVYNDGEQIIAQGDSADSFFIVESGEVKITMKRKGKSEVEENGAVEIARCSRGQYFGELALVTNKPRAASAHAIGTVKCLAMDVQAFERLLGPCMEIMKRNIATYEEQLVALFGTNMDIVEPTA
PfHsp90 yeast 2 – inhibits growth of yeast expressing Plasmodium falciparum Hsp90. AID 504621. inhibition, % at 9.4 µM. S. cerevisiae expressing PfHsp90, BacTiter-Glo ATP, 48 h; yeast lacking PDR1 and PDR3 efflux regulators. actives 0.32% (n = 310,000);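 active = every replicate shows inhibition above about 80%, whatever the replicate mean, limit read from the data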;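 also: 0% = DMSO neutral controls and 100% = 20 µM radicicol positive controls; yeast relying on Plasmodium falciparum Hsp90 in place of its own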
SUMO Mot1 rescue – inhibitors of SUMOylation pathway: yeast Mot1-301 growth rescue; S. cerevisiae Mot1-301 growth rescue, ATP luminescence, 38.5C; percent above DMSO median, 100 means doubled; growth rescue, % at 18.8 µM; actives 1% (n = 320,000); AID 2716;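 active = every valid replicate shows activation above 250% relative to neutral control wells; inactive = the rest, any valid replicate at or below 250%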;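 also: OY570 slx delta 5 strain wells were the positive control but not used for scaling; some compounds called inactive have numbers as strong as hits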
Active calls of the source: *; . = no result given; & = joins results of further samples; ! = not confirmed by another sample. These rows are one share of the data (hit frequency here may not be typical).

SMILES	PKA-R1A act	HTR5A inv ag	Ecoli viability	phage Ecoli inh	Tat transport	AddAB inh	PKA-R2B act	PfHsp90 yeast 2	SUMO Mot1 rescue
O=C1NCN(c2ccccc2)C12CCN(CCCC(c1ccc(F)cc1)c1ccc(F)cc1)CC2	-8.7	-22.1	2.2	5.9	9.8	1.3	-2.2	-0.1	-9.7
Cc1ncc([N+](=O)[O-])n1CCO	4.2	-15.4	1.6	1.2	-4.8	1.1	-3.2	7.2	122.6
Cc1ccc(S(=O)(=O)NC(=O)NN2CCCCCC2)cc1	4.2	-32.8	-3.4	2.2	-4.9	-2.9	-2.4	6.4	-3.3&-6.0
CC1(C)S[C@@H]2[C@H](NC(=O)[C@H](N)c3ccccc3)C(=O)N2[C@H]1C(=O)O	0.1&-0.1	-6.0&17.8	-1.6&-2.3	3.0&2.9	-18.5&3.6	-2.4&-1.3	-3.9&-1.7	-19.8&8.7	-8.5&-3.5
CCC(=O)OCC(=O)[C@@]1(OC(=O)CC)[C@@H](C)C[C@H]2[C@@H]3CCC4=CC(=O)C=C[C@]4(C)[C@@]3(Cl)[C@@H](O)C[C@@]21C	2.3	-1.3	0.1	3.6	16.4	-0.3	16.5	-32.6	16.9
CCN(CC)CCOc1ccc(/C(=C(/Cl)c2ccccc2)c2ccccc2)cc1	8.1&-1.8	-3.0&-29.4	2.4&-0.3	5.2	21.0&5.4	1.9&-1.4	10.9&4.0	-34.5&35.5	-29.6&-0.7
CC(COc1ccccc1)N(CCCl)Cc1ccccc1 (stereo not drawn)	-0.9	-0.7	-2.3	1.0	-3.2	-0.9	9.2	9.4	40.1
c1ccc(-c2ccc(C(c3ccccc3)n3ccnc3)cc2)cc1 (stereo not drawn)	-5.9	-12.9	-1.9	2.1	2.5	-0.2	5.8	105.3*	50.2
CC(=O)OCC(=O)[C@@]12OC(C)(C)O[C@@H]1CC1C3C[C@H](F)C4=CC(=O)C=CC4(C)[C@@]3(F)C(O)CC12C (stereo partly drawn)	-5.8	-2.1	-0.5	4.4	-10.3	0.2	-9.2	-3.3	-3.4
COc1ccc2c3c1O[C@H]1C[C@@H](O)C=C[C@@]31CCN(C)C2	-4.8	7.4	-0.8	3.6	-6.9	-0.6	10.1	-6.4	1.6
CC[N+](C)(C)Cc1ccccc1Br	-10.6	-2.8	-0.3	0.7	-3.5	-0.6	3.5	-14.2	-0.8
CC(CCC(=O)O)C1CCC2C3C(O)CC4CC(O)CCC4(C)C3CC(O)C12C (stereo not drawn)	6.9	-5.7	0.3	3.2&3.0	-5.8	-0.9	-9.2	11.9	3.7
CC(=O)O[C@H]1C(=O)[C@@]2(C)[C@H]([C@H](OC(=O)c3ccccc3)[C@]3(O)C[C@H](OC(=O)[C@H](O)C(NC(=O)c4ccccc4)c4ccccc4)C(C)=C1C3(C)C)[C@]1(OC(C)=O)CO[C@@H]1C[C@@H]2O (stereo partly drawn)	-5.2	17.9	-2.2	3.3	-1.6&3.3	-0.9	5.2	-5.9	230.9
NCCS(=O)(=O)O	-1.2	24.3	1.2	4.5	-5.4	1.1	6.0	-4.8	-7.9
CCCCNC(=O)NS(=O)(=O)c1ccc(C)cc1	-7.2	-6.0	-1.8	4.0	-4.0	-6.3	-7.7	-3.2	-15.0
Cc1[nH]c(=O)c(C#N)cc1-c1ccncc1	-11.2	-42.5	-0.3	4.5	8.8	-1.6	-15.6	3.2	18.0
COC(=O)[C@@H]1[C@H]2C[C@H]3c4[nH]c5ccccc5c4CCN3C[C@@H]2CC[C@@H]1O	-3.9	0.0	-3.7&-1.5	2.9	-8.9	-0.8&-3.3	-1.8	-10.5	-0.9&-5.5
OCCN1CCN(CC/C=C2/c3ccccc3Sc3ccc(C(F)(F)F)cc32)CC1	-11.2	-39.8	1.6	2.5	0.2	-0.6	8.0	-9.5	3.5
CCCCCC(O)C=CC1C(O)CC(O)C1CC=CCCCC(=O)O (stereo not drawn)	-1.9	.	.	1.3	.	.	-0.2	.	.
CCCC(=O)Nc1ccc(OCC(O)CNC(C)C)c(C(C)=O)c1 (stereo not drawn)	0.4	0.1	1.6	4.9	0.5	-4.1	-7.0	4.4	2.7&-6.9
N=C(N)c1ccc(OCCCCCOc2ccc(C(=N)N)cc2)cc1	-10.4	9.3	-2.2	5.5	38.4	-0.1	4.5	-8.1	122.7
O=S(=O)(O)c1cc(O)ccc1O	-14.6	-7.1	-2.0	4.1	6.6	-4.3	-10.4	6.5	66.5
CC(C)NCC(O)COc1cccc2ccccc12 (stereo not drawn)	0.1	-16.4	1.6	3.0	-22.2	0.3	1.0	4.6	20.1
COc1cc(CNC(=O)CCCC/C=C\C(C)C)ccc1O	.	.	0.6	.	.	0.2	.	.	103.1
CN1C(CCl)Nc2cc(Cl)c(S(N)(=O)=O)cc2S1(=O)=O (stereo not drawn)	-1.7	-12.6	.	-1.7	8.3	.	-4.3	10.7	.
O=C(O)c1cc(=O)c2c(OCC(O)COc3cccc4oc(C(=O)O)cc(=O)c34)cccc2o1	-0.7	-17.3	.	2.7	-11.0	.	-3.1	0.8	.
O=C(O)c1cc(-c2ccccc2)nc2ccccc12	3.5	0.3	-1.9	3.5	-2.8	-0.1	0.3	22.1	-7.7&25.9
Cc1cccc(-c2nnc(NC(=O)c3ccc(Cl)cc3)o2)c1	-2.7	-22.8	-0.5	-2.3	-0.6	2.6	3.2	.	-1.0
CC1(C)S[C@@H]2[C@H](NC(=O)[C@H](N)c3ccccc3)C(=O)N2[C@H]1C(=O)OC1OC(=O)c2ccccc21 (stereo partly drawn)	-5.3	-0.2	0.8	21.4*	-12.6	-1.4	-15.1	-3.7	20.4
CN/C(=C/[N+](=O)[O-])NCCSCc1ccc(CN(C)C)o1	-25.7	3.4	-0.4	3.9	-14.5	-4.4	-6.2	11.6	860.2*!
NC(=O)c1cccnc1	-15.1	-5.0	1.6	4.4	4.1	-2.5	-9.1	-7.8	134.2
O=C(Nc1ccc([N+](=O)[O-])cc1Cl)c1cc(Cl)ccc1O	1.4	-26.6	-0.4	3.3	-22.2	-2.7	5.2	7.2	-17.5
Cc1c(N(C)C)c(=O)n(-c2ccccc2)n1C	-5.0	-4.7	-1.1	2.3	8.9	1.7	2.9	-11.3	-12.2
CC(=O)Nc1ccc(OCC(O)CNC(C)C)cc1 (stereo not drawn)	0.3	-7.0	-0.9	3.5	-4.7	0.9	5.7	4.5	8.5
COc1ccc([C@@H]2Sc3ccccc3N(CCN(C)C)C(=O)[C@@H]2OC(C)=O)cc1	-2.9	-13.0	2.1	5.0	-7.8	1.9	4.8	-1.1	238.0
C[C@H](CCC(=O)O)[C@H]1CC[C@H]2[C@@H]3[C@H](O)C[C@@H]4C[C@H](O)CC[C@]4(C)[C@H]3C[C@H](O)[C@]12C	1.3&-4.5&-9.1	-36.3&1.3&-12.3	-0.3&2.2&-0.7	4.9&3.3&2.3	-5.8&-6.9&1.7	-0.9&0.3&2.4	-3.2&2.7&1.5	-2.3&1.4	257.8&13.8&2.4
COC1=CC(=O)C[C@@H](C)[C@]12Oc1c(Cl)c(OC)cc(OC)c1C2=O	1.3	2.0	-2.0	3.6	-8.7	-4.8	0.0	14.4	-4.6
CCn1cc(C(=O)O)c(=O)c2cc(F)c(N3CCNCC3)cc21	0.9	-4.4	99.5*	.	94.1*	99.3*	3.7	1.1	283.9
CC(CN1c2ccccc2Sc2ccccc21)N(C)C (stereo not drawn)	3.0	-5.1	4.0	2.7	2.0	0.6	2.4	-3.5	102.9
COc1c(N2C[C@@H]3CCCN[C@@H]3C2)c(F)cc2c(=O)c(C(=O)O)cn(C3CC3)c12	-0.9	-40.4	101.9*	98.2*	106.0*	100.3*	2.1	2.4	-10.0
CC(=O)OCC(=O)[C@@]1(O)CCC2C3CCC4=CC(=O)CCC4(C)C3C(=O)CC21C (stereo partly drawn)	4.4	-1.4	.	0.0	-3.2	.	4.0	-12.7	.
COc1cc(CNC(=O)CCCC/C=C/C(C)C)ccc1O	-10.2	8.1	-2.0	2.6	-4.9	-0.5	7.3	1.2	0.3
Cc1ccc(NC2(C#N)C(=O)Nc3ccccc32)cc1 (stereo not drawn)	-14.9	17.4	1.4	2.3	-6.7	-0.8	-10.4	6.1	-1.8
Cc1cccc(CN2CCN(C(c3ccccc3)c3ccc(Cl)cc3)CC2)c1 (stereo not drawn)	12.0	-10.2	1.3	5.0	10.8	-0.2	2.0	13.9	-9.0
CCCCC1(COC(=O)CCC(=O)O)C(=O)N(c2ccccc2)N(c2ccccc2)C1=O	-6.8	13.0	-1.9	3.2	-1.8	0.8	2.4	17.9	-10.1
C[C@H](CCC(=O)O)[C@H]1CC[C@H]2[C@@H]3CC[C@@H]4C[C@H](O)CC[C@]4(C)[C@H]3C[C@H](O)[C@]12C	8.6&-1.0&6.0	-6.0&-32.1&12.7	-0.8	3.3&1.9&6.8&0.8	-1.0&-8.2&0.2	3.4	-7.4&-3.7&7.5	-12.4&8.6&24.8	422.2*
CN=C(C[N+](=O)[O-])NCCSCc1ccc(CN(C)C)o1	6.9	-16.4	-0.9	2.4	7.1	1.5	5.2	0.4	.
O=C(OCc1ccccc1)c1ccccc1	-2.3	5.5	-1.3	1.7	0.3	0.7	3.6	12.2	-2.5
CCN(CC)C(=O)N1CCN(C)CC1	7.7	-3.3	-0.1	3.5	-8.1	-3.3	-4.5	-4.1	-6.0
O=C(O)C[C@@H](O)C(=O)O	0.1	-25.4	0.3	1.6	4.6	0.6	2.4	5.9	-0.9
COC(=O)C1=C(C)NC(C)=C(C(=O)OCCN(C)Cc2ccccc2)C1c1cccc([N+](=O)[O-])c1 (stereo not drawn)	-10.8	9.1	-0.9	3.2	11.9	3.6	12.3	-2.4	-26.0
CC[N+](C)(C)c1cccc(O)c1	4.6	-32.1	-1.4	2.9	8.0	2.9	5.3	2.8	-0.3&-12.9
